HPGD inh = qHTS Assay for Inhibitors of HPGD (15-Hydroxyprostaglandin Dehydrogenase) | 15-hydroxyprostaglandin dehydrogenase [NAD(+)] (Homo sapiens), P15428 | 150,000 tested, 4.3% active | Potency, µM, for inactives: at the top dose activity change, negative = inhibition, usual class: inhibitors | purified HPGD, NADH fluorescence kinetic, PGE2 substrate; active = well fitted inhibition curve with a large enough effect (not every such curve was filed as active); inconclusive = small, poorly fitted or top-dose-only effect, or another doubt; inactive = no such curve, though single readings can be large or run the other way;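 also: top concentration of the series not given in the record; plate controls included wells without enzyme; inactives centre near -10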
Target sequence (P15428 whole entry, looked up): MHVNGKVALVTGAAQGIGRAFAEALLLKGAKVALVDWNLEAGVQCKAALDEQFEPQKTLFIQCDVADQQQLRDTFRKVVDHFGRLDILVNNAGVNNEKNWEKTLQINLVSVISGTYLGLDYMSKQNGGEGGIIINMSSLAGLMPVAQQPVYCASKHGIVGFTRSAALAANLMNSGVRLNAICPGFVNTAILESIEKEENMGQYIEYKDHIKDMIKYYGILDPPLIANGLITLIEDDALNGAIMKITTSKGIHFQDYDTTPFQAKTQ
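20 nM HPGD preincubated 15 min at room temperature with compound in 50 mM Tris-HCl pH 8, 0.01% Tween 20. Started with 1 mM NAD+ and 30 uM prostaglandin E2; NADH fluorescence (360/450 nm) read 5 times over 30-s intervals, last minus first.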
* = called active by the depositor; ? = inconclusive; & = joins results of further samples. % is scaled to controls: 0 for no effect and ±100 for the full control effect; potency is read from the fitted curve at half-maximal effect. Only part of the results is shown. The share of hits here may be higher or lower than overall.

HPGD inh | SMILES
? | COc1ccc2c(c1)c1ncn(CCN3CCCCC3)c(=O)c1n2C
-1% | CCOC(=O)/N=C(/NC(=O)Nc1ccc(C(=O)OCC)cc1)OC
28µM* | CCCC(OC(=O)CN1C(=O)COc2ccccc21)C(=O)NC1CCCC1 (stereo unspecified)
-17% | CC(=O)c1ccc(N2CCN(C(=O)c3ccc(OCc4c(C)noc4C)cc3)CC2)cc1
-15% | CCOc1ccc(NC(=S)Nc2cc(-c3ccccc3)[nH]n2)cc1
-14% | COc1cc(S(=O)(=O)N(C)C)ccc1F
-10% | COc1ccc(C2=NOC(C(=O)NCc3cccs3)C2)cc1OC (stereo unspecified)
2% | O=C(CS(=O)(=O)Cc1ccccc1)Nc1ncccn1
14µM* | CSCCNC(=O)c1ccc(C(C)(C)C)cc1
-23% | CNC(=S)NNC(=O)COc1cccc(C)c1C
-5% | O=C(O)CCC(=O)Nc1ccccc1C(=O)NC1CCCCC1
-22% | CCn1c(SCC(=O)NCCc2ccccc2)nc2c(c1=O)SC(C)C2 (stereo unspecified)
? | O=C(c1ccccc1)n1ccc(-c2cnc(-c3ccccc3)s2)n1
-7% | COC(=O)[C@H](COC(C)(C)C)NC(=O)O[C@@H]1C(=O)c2ccc(OC)cc2O[C@H]1c1cccc(C(F)(F)F)c1
-4% | CCOC(=O)C1=NNC(C(=O)c2ccc(OC)cc2)C1c1ccccc1 (stereo unspecified)
-1% | Nc1nc(-c2cccnc2)nn1C(=O)COc1ccccc1
? | CCN(c1ccc(NC(=O)CSc2nnc3nc(C)cc(C)n23)cc1)C(C)C
-4% | CC(C)(C)n1nc2c(c1NC(=O)c1cccs1)CS(=O)C2 (stereo unspecified)
-6% | N#C/C(=C\c1cn[nH]c1-c1ccc(Cl)cc1)C(=O)NC1CC1
-1% | CC(Sc1nnc(Cc2cccs2)n1C1CCCCC1)C(=O)NCc1ccco1 (stereo unspecified)
20µM* | O=c1cc(-c2ccc(O)cc2)oc2ccc(O)cc12
-1% | COc1ccc(C(=O)NC(C(=O)NCC(=O)Nc2c(C)cccc2C)C(C)C)cc1 (stereo unspecified)
-27% | COc1ccccc1NC(=O)Cc1cccs1
-22% | Cc1noc(NS(=O)(=O)c2ccc(N/C=C/C(=O)c3ccc4c(c3)OCO4)cc2)c1C
-14% | O=C(NC(Cc1ccccc1)C(=O)O)/C(=C/c1ccccc1)NC(=O)c1ccccc1 (stereo unspecified)
-12% | O=C(NC(=S)N1CCN(C/C=C/c2ccccc2)CC1)c1c(F)cccc1F
-24% | COc1ccc(-n2c(=O)cnc3cnc(N4CCNCC4)nc32)cc1
-8% | COc1ccc(CCNC(=O)COC(=O)c2ccc(Br)o2)cc1
-14% | O=C1OC(Nc2ccc(Br)cn2)c2ccccc21 (stereo unspecified)
-17% | CCOC(=O)C(NCc1ccccc1OC)(NC(=O)CC)C(F)(F)F (stereo unspecified)
-10% | CCOC(=O)c1cccc2c(=O)c(C(=O)c3ccc(Cl)cc3)c(C(=O)OC)[nH]c12
-9% | NC1=NC2(CCCCCC2)n2c(nc3ccccc32)N1
-2% | O=C(c1cccc([N+](=O)[O-])c1)N1CCOCC1
-1% | O=C(O)c1c(Sc2ccccc2)c2cc(Cl)ccc2n1Cc1ccc(Cl)cc1
-4% | CN1C(=O)CC(N2CCN(Cc3ccc(Cl)cc3)CC2)C1=O (stereo unspecified)
-17% | O=c1ccn(Cc2ccc(F)cc2)c2ccnc(C(F)(F)F)c12
-5% | CN(C(=O)C1CCOC1)c1nnc(C2CCOC2)s1 (stereo unspecified)
-28% | CN1C2=C(C#N)C(c3ccccc3)(C(F)(F)F)NC(=O)N2c2ccccc21 (stereo unspecified)
2% | CCOC(=O)C1(P(=O)(c2ccc(Cl)cc2)c2ccc(Cl)cc2)CCC1
-10% | O=C1C2CC=C(Cl)CC2C(=O)N1c1ncn[nH]1 (stereo unspecified)
-7% | CN1CCN(C(=O)C2CCCCC2C(=O)O)CC1 (stereo unspecified)
-1% | CCOc1cccc2c1OC1(C)CC2NC(=O)N1c1ccc(OC)cc1 (stereo unspecified)
-7% | CCOC(=O)c1ccc(N2C(=O)CC(NC3CCN(C(=O)c4ccc(F)cc4)CC3)C2=O)cc1 (stereo unspecified)
-13% | CC(=O)c1sc(NC(=O)C2COc3ccccc3O2)nc1C (stereo unspecified)
-4% | NS(=O)(=O)c1ccc(NC(=O)CSc2nnc(COc3ccccc3Cl)n2C2CC2)cc1
-21% | CN1C(=O)NC(c2ccccc2)C2=C1CN(c1cccc(C(F)(F)F)c1)C2=O (stereo unspecified)
-25% | COc1ccc(OC)c(CC(NC(C)=O)C(=O)NC2CCN(c3nc(C)cc(C)c3C#N)CC2)c1 (stereo unspecified)
-26% | CCCCN(C(=O)CSc1nnc2ccccn12)c1c(N)n(Cc2ccccc2)c(=O)[nH]c1=O
-13% | O=C(CSCc1cnn(-c2ccccc2)c1-n1cccc1)NCc1ccc2c(c1)OCO2
-13% | Cc1nc(NCC2CCCO2)[nH]c(=O)c1CCC(C)C (stereo unspecified)
2% | Cc1oc(-c2ccccc2F)nc1CN1CCC(C(=O)NCCC2=CCCCC2)CC1
-9% | CN(C)S(=O)(=O)c1cccc(COC(=O)C2=COCCO2)c1
-27% | On1c(-c2ccccc2)nc2ccc(Cl)cc21
? | CC(C)CNC(=O)CSc1nc(-c2cccs2)cc(C(F)(F)F)n1
-21% | COc1ccc(C2=NOC(C(=O)NCc3ccco3)C2)cc1OC (stereo unspecified)
-3% | Cc1cc(C)cc(NC(=O)CCn2ccnc2C)c1
-5% | CSc1nc(N(C)NC(=O)c2ccccc2)c2ccccc2n1
-15% | CC(C)CNC(=O)c1noc2c1CCCC2
0% | CCC(=O)N(Cc1ccccc1)c1ccccn1
-6% | CCS(=O)(=O)N1CCN(C(=O)c2cc(OC)cc(OC)c2)CC1

In the list so far, three have a furan ring, fused or not.
HPGD inh | SMILES
-1% | CC(Sc1nnc(Cc2cccs2)n1C1CCCCC1)C(=O)NCc1ccco1 (stereo unspecified)
-8% | COc1ccc(CCNC(=O)COC(=O)c2ccc(Br)o2)cc1
-21% | COc1ccc(C2=NOC(C(=O)NCc3ccco3)C2)cc1OC (stereo unspecified)

Continuation.
HPGD inh | SMILES
0% | CCc1nnc(NC(=O)Cc2ccc(OCc3c(C)noc3C)cc2)s1
-10% | CC(=O)N1c2c(cc(Br)cc2S(=O)(=O)N2CCN(c3ccccn3)CC2)CC1C (stereo unspecified)
-5% | Cc1c(Cl)cccc1NC(=O)CSc1nnc(C)n1-c1ccccc1
-3% | O=C(O)c1cc(S(=O)(=O)NCC2CCCO2)ccc1Cl (stereo unspecified)
-11% | CCC(CCC(=O)Nc1nncs1)C(=O)O (stereo unspecified)
-9% | [Li+]
-9% | COCCCNc1nc2c([nH]1)c(=O)[nH]c(=O)n2C
32µM* | CCCN1C(=O)/C(=C\c2ccncc2)SC1=Nc1ccccc1
-1% | CC(C)NC(=O)N1CC2(CCN(C(=O)c3cc(C(F)(F)F)cc(C(F)(F)F)c3)CC2)C1
2% | O=C(O)c1ccc(Cl)c(S(=O)(=O)NCC2CCCO2)c1 (stereo unspecified)
1% | CSc1nc2cc(Cl)ccc2s1
-4% | O=C(Nc1ccc2c(c1)OCO2)c1ccc2nc[nH]c2c1
28µM* | COc1cccc(/C=N/NC(=O)c2cc3cc([N+](=O)[O-])ccc3s2)c1O
-13% | O=C(Oc1ccc(Cl)cc1)c1ccc2nccnc2c1
-19% | COc1cc(S(=O)(=O)NCCOC23CC4CC(CC(C4)C2)C3)c(OC)cc1Cl
-13% | CCOC(=O)c1ccc(NC(=O)COC)cc1
-12% | Cc1cccc(NC(=S)NCc2ccco2)c1C
-3% | COc1cc(NC(=O)CN2CCN(c3ccccc3F)CC2)cc(OC)c1
-14% | O=c1c2c3c(sc2n(CCN2CCOCC2)c(=O)n1Cc1ccco1)CCCCC3
-8% | COc1ccc(C(=O)NCC(=O)OCC(=O)N2CCN(S(=O)(=O)c3ccccc3)CC2)cc1
-3% | Cc1nc2c3cc(Cl)ccc3n(CCN3CCCCC3)c2s1
-2%&-6% | CCOC(=O)N1CCN(CCC(=O)Nc2cccc(Br)c2)CC1
-26% | COc1ccc(N=C2S/C(=C\c3ccc(C)o3)C(=O)N2CC(C)C)cc1
3% | Cc1oc(C(C)(C)C)cc1C(=O)Nc1cccc(C(=O)O)c1
-4% | O=C(NCCc1ccccn1)c1cccc(S(=O)(=O)N2CCCCCC2)c1
? | NS(=O)(=O)c1ccc(NC(=O)c2cc(-c3cccs3)nc3ccccc23)cc1
-11% | COCC(=O)N1CCC2(CCCN(C(c3ccccc3)c3ccccc3)C2)CC1
-18% | O=C(Nc1nnc(-c2ccc(Cl)cc2)o1)c1ccc(N2C(=O)CCC2=O)cc1
-5% | O=C(c1ccccc1F)N1CCC(N2CCCCCC2)CC1
-13% | Cc1nc2ccccc2cc1C(=O)N/N=C/c1cccc([N+](=O)[O-])c1
-14% | CC(=O)N1CCN(c2ccc(NC(=S)NC(=O)c3ccccc3)cc2)CC1
-6% | C=CCNC(=S)Nc1nc2c(cc1C(=O)OCC)CCCC2
? | Cc1ccc(-c2cc(-c3ccccc3)c3c(N)c(S(C)(=O)=O)sc3n2)cc1
-14% | O=[N+]([O-])c1cccc(C2=N[C@@H](Cc3ccccc3)CO2)c1
4% | CC1CCC/C(=N/NC(=O)c2ccccc2-n2cccc2)C1 (stereo unspecified)
-3% | O=C(CSc1nn(-c2ccc(F)cc2)c(=S)s1)N1CCN(C(=O)c2ccco2)CC1
13µM* | Cn1ncc(Cl)c1C(=O)Nc1cccc(Cl)c1
22µM* | CC1CCCCN1C(=O)c1ccc(COc2ccc([N+](=O)[O-])cc2)o1 (stereo unspecified)
-13% | CC1CC(C)CN(S(=O)(=O)c2ccc(C(=O)NCc3ccc4c(c3)OCO4)cc2)C1 (stereo unspecified)
-12% | Cc1ccc(NC(=O)CSc2n[nH]c(-c3ccncc3)n2)cc1
-3% | COCCCNC(=O)CCn1c(=O)c2ccccc2n(CC(=O)Nc2c(C)cccc2C)c1=O
-11% | CCCCSc1nnc([C@@H](NC(=O)OC(C)(C)C)C(C)C)o1
-8% | Cc1ccnc(NC(=O)C2(c3cccs3)CCOCC2)c1
? | CCCNC(=O)c1cc2nc(-c3ccccc3)cc(C(F)(F)F)n2n1
-3% | CCN1CCCC1CNC(=O)C(NC(=O)C1CCC(C)CC1)C(C)C (stereo unspecified)
-8% | CC(SCC(=O)NC(C)C1CC2CCC1C2)C(=O)O (stereo unspecified)
-3% | CCOC(=O)N1CCN(Cc2c(F)cccc2F)CC1
-5% | CCCCCCCCc1nnc(NC(=O)c2ccco2)s1
-6% | Cc1ccc(C(C)C)c(OCc2nnc3n2CCCCC3)c1
-3% | CCOC(=O)Cc1csc(NS(=O)(=O)c2ccc(F)cc2)n1
-28% | CCc1cc2ccccc2nc1SCC(=O)Nc1cc(C)on1
-7% | CCN1C2=NCCCN2c2cc(C)c(C)cc21
? | CN(c1nc2ccccc2n2c(-c3ccco3)nnc12)S(=O)(=O)c1ccccc1
-7% | Cc1cc(C)c(C#N)c(Oc2ccccc2)n1
-5% | Cc1ccccc1NC(=O)c1ccc(N/N=C/c2ccccc2O)c([N+](=O)[O-])c1
-11% | C=CCN(CC=C)C(=O)C1CCC(C(=O)N(CC=C)CC=C)CC1 (stereo unspecified)
-13% | O=C1CCCc2nc(N3CCN(c4ccccc4)CC3)ncc21
-1% | Cc1cc(Br)ccc1NC(=O)CNC(=O)CSc1n[nH]c(N)n1
-3% | Fc1ccc(CN(Cc2ccccc2)C(c2cccs2)c2nnnn2C2CCCCC2)cc1 (stereo unspecified)
-13% | CCn1cnc2sc(C(=O)N3CCN(Cc4ccc5c(c4)OCO5)CC3)c(C)c2c1=O

Continuation:
HPGD inh | SMILES
-11% | Cn1c(=O)c(-c2ccccc2)c(O)c2ccccc21
-12% | O=C(O)[C@@H]1[C@@H](C(=O)Nc2ccccc2)[C@@H]2C=C[C@@H]1O2
-1% | COc1ccc(NC(=O)N2CCC(NC(=O)c3ccco3)CC2)cc1
? | CSc1ccc(/C=C/C(=O)NC23CC4CC(CC(C4)C2)C3)cc1

Of the compounds above, these have a Cl atom.
HPGD inh | SMILES
-6% | N#C/C(=C\c1cn[nH]c1-c1ccc(Cl)cc1)C(=O)NC1CC1
-10% | CCOC(=O)c1cccc2c(=O)c(C(=O)c3ccc(Cl)cc3)c(C(=O)OC)[nH]c12
-1% | O=C(O)c1c(Sc2ccccc2)c2cc(Cl)ccc2n1Cc1ccc(Cl)cc1
-4% | CN1C(=O)CC(N2CCN(Cc3ccc(Cl)cc3)CC2)C1=O (stereo unspecified)
2% | CCOC(=O)C1(P(=O)(c2ccc(Cl)cc2)c2ccc(Cl)cc2)CCC1
-10% | O=C1C2CC=C(Cl)CC2C(=O)N1c1ncn[nH]1 (stereo unspecified)
-4% | NS(=O)(=O)c1ccc(NC(=O)CSc2nnc(COc3ccccc3Cl)n2C2CC2)cc1
-27% | On1c(-c2ccccc2)nc2ccc(Cl)cc21
-5% | Cc1c(Cl)cccc1NC(=O)CSc1nnc(C)n1-c1ccccc1
-3% | O=C(O)c1cc(S(=O)(=O)NCC2CCCO2)ccc1Cl (stereo unspecified)
2% | O=C(O)c1ccc(Cl)c(S(=O)(=O)NCC2CCCO2)c1 (stereo unspecified)
1% | CSc1nc2cc(Cl)ccc2s1
-13% | O=C(Oc1ccc(Cl)cc1)c1ccc2nccnc2c1
-19% | COc1cc(S(=O)(=O)NCCOC23CC4CC(CC(C4)C2)C3)c(OC)cc1Cl
-3% | Cc1nc2c3cc(Cl)ccc3n(CCN3CCCCC3)c2s1
-18% | O=C(Nc1nnc(-c2ccc(Cl)cc2)o1)c1ccc(N2C(=O)CCC2=O)cc1
13µM* | Cn1ncc(Cl)c1C(=O)Nc1cccc(Cl)c1
